Rce1 inh = inhibitors of yeast Ras-converting enzyme; Q03530; yeast membranes, quenched prenylated peptide cleavage fluorescence; calls only; 290,000 tested, 0.27% active;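 active = fall in fluorescence gain of 50% or more versus controls, with final raw signal at or below 3038400; inconclusive = same 50% fall but final raw signal above 3038400; inactive = fall in fluorescence gain under 50%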;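 note: plate controls were neutral control wells for no effect and wells lacking membranes for full effect; tested at 10 µM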
Target sequence (Q03530 whole entry, looked up): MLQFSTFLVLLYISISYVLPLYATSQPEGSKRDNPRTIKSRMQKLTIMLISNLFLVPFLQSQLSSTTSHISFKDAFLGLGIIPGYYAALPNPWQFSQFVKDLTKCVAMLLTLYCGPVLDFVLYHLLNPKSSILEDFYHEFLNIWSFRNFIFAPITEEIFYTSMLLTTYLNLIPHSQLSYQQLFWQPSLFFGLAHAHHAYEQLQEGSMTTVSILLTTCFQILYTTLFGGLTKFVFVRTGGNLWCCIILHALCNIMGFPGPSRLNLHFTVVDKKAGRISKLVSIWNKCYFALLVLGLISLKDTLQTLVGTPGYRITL
Yeast UUG start = alters start codon recognition fidelity in yeast. S. cerevisiae UUG-firefly luciferase reporter, luminescence/redox ratio. AID 602363. 350,000 tested, 0.13% active. activity score, % at 18.7 µM;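 active = replicate mean at a twofold rise or more, about +100% in these data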;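 note: firefly luciferase made from a UUG start codon reports start codon fidelity; reporter light over untreated wells divided by growth signal over untreated wells; some hits fall short of that in this replicate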
eIF4H inh = inhibitors of RNA binding by human eIF4H; Q15056; eIF4H fluorescence polarization binding assay; inhibition, % at 35 µM; 290,000 tested, 0.94% active; AID 2012;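 active = 50% or more with normal probe brightness, or confirmed in later tests; inconclusive = above 50% with abnormal brightness, or retests that disagree; inactive = below 50% or failed in later tests; about a fifth of its hits are not listed in these tables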;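 note: calls also rest on retests at 20 µM and on dose response follow-up; 0% = protein and probe with vehicle and 100% = probe without protein; strong numbers were not always called active; many hits fall short of the cut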
MT1-MMP act inh = blocks activation of human MT1-MMP; AID 651647; HT1080 RFP-PRO-GFP cells, GFP/RFP ratio fluorescence, overnight; percent of plate control window, DMSO zero; 360,000 tested, 0.061% active; GFP/RFP ratio change, % at 20 µM; P50281;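 active = GFP/RFP ratio change of at least 30% with cell ATP level not reduced by more than half and red fluorescence within 50% of control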; note: strong numbers were not always called active
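Assay system: HT1080 cells carrying an RFP-PRO-GFP reporter | Dosing: Single dose of 20 µM compound, 1% DMSO final | Incubation: Cells overnight before dosing, compound overnight, 37 °C, 5% CO2 | Evaluation: GFP/RFP fluorescence ratio | Control set: DMSO and RFP-L50D-GFP cell wells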
CSC inhib = cancer stem cell inhibition. AID 2717. 300,000 tested, 1.1% active. inhibition, % at 7.5 µM. cancer stem cell-like cells viability, luminescence;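 active = mean at 75% or more and at least half the replicates too; inconclusive = mean and replicates disagree; tested in HMLE shEcad cells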;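 note: 0% = median of negative and 100% = median of positive control wells; the first replicate is given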
PABP FP inh = blocks human PABP binding to poly(A) RNA. P11940. fluorescence polarization. inhibition, % at 35 µM. 290,000 tested, 1% active. AID 2014;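 active = 50% or more with normal probe brightness, or confirmed in later tests; inconclusive = above 50% with abnormal brightness, or retests that disagree; inactive = below 50% or failed in later tests; about a fifth of its hits are not listed in these tables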;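 note: calls also rest on retests at 20 µM and on dose response follow-up; controls were probe without protein and protein plus probe with vehicle; some compounds called inactive have numbers as strong as hits; many hits fall short of the cut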
Target sequence (P11940 whole entry, looked up): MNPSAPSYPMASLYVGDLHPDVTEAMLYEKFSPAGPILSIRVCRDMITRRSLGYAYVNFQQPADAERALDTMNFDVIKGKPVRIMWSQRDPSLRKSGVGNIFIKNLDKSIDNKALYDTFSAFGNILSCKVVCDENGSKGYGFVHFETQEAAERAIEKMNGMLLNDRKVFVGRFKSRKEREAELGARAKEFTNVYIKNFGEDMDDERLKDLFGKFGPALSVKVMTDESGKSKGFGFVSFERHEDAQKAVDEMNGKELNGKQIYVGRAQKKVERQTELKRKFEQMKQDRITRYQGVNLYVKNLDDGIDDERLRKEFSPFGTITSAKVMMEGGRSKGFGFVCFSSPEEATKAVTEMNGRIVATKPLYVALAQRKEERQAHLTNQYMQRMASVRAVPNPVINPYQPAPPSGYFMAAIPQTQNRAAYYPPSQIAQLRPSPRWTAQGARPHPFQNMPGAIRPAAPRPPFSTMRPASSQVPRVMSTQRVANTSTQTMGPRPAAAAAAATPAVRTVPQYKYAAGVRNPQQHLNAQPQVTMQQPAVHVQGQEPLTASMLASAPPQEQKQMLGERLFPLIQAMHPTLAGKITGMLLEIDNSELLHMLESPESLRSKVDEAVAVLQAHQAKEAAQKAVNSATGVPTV
HIV Env fusion = blocks HIV Env-driven cell-cell fusion; HeLa-JRFL Env/CEM21 cell fusion, luciferase; 360,000 tested, 1.1% active; inhibition, % at 12.3 µM;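 active = mean replicate inhibition score of at least 50 and every replicate individually at or above 50; inconclusive = only one of the two criteria met; inactive = mean below 50 and not all replicates reaching 50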;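 note: 0% = plate neutral controls and 100% = maraviroc near 300 nM; one replicate is shown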
MT1-MMP act inh RFP = recorded beside MT1-MMP act inh, whose call it bears; RFP signal change, %; measured here: RFP expression control read;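 0 = vehicle wells; hits needed this value within 50% of zero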
* = called active by the depositor; i = inactive; ? = inconclusive; / = no result given. These rows are one share of the data; rates above refer to the full screens.

SMILES	Rce1 inh	Yeast UUG start	eIF4H inh	MT1-MMP act inh	MT1-MMP act inh RFP	CSC inhib	PABP FP inh	HIV Env fusion
CN(C)C(=O)c1ccc(Oc2ccc(C(=O)N(C)C)cc2)cc1	i	17	-10	2	0	-3	-6	2
COc1cccc(-c2csc(N3CCN(CC(=O)NNC(=O)c4ccc(Cl)cc4)CC3)n2)c1	i	2	-14	4	-6	9	-8	/
O=C(CN1C(=O)COc2ccccc21)Nc1ccc(N2CCOCC2)cc1	i	-13	-12	2	1	0	-5	-61
Nc1cccc(-c2nc3ccc(N)cc3s2)c1	i	-33	-9	1	-2	8	-5	/
COc1cc(OC)cc(C(=O)N[C@H](C(=O)Nc2cccc(S(=O)(=O)N3CCCC3)c2)C(C)C)c1	i	-12	7	-24	-21	-5	3	12
COc1ccc(-c2[nH]c(-c3ccc(C)cc3)nc2SCC(=O)Nc2nccs2)cc1	i	/	2	3	-7	/	-12	21
COc1ccc(-n2c(Cc3cccn3C)nnc2SCC(=O)Nc2ccc(C)c(Cl)c2)cc1	i	-4	4	5	1	4	18	13
CCOC(=O)C1CCCN(C(=O)c2cc(Nc3ccc(OC)cc3OC)nc3ccccc23)C1 (configuration not stated)	i	12	7	3	-4	/	-3	-422
COc1cc(C(=O)NC(=S)Nc2ccc(NC(=O)c3ccco3)cc2)cc(OC)c1OC	i	/	6	0	-4	1	0	21
C=CCNC(=O)/C(C#N)=C/c1c(N2CCN(c3ccccc3)CC2)nc2c(C)cccn2c1=O	i	-8	6	-6	-2	-13	15	12
Cc1ccc(S(=O)(=O)N(C)C)cc1NC(=O)CSc1nnc(C2CC2)n1C1CC1	/	-8	/	2	2	/	/	11
Cc1c(NCc2ccccc2O)c(=O)n(-c2ccccc2)n1C	i	/	8	-3	0	6	-4	14
O=C(CCCOc1ccc(Cl)cc1Cl)NCC1CCCO1 (configuration not stated)	i	/	-7	-2	4	-17	4	/
O=c1cc(-c2ccccc2)n(S(=O)(=O)c2ccccc2)o1	i	24	-8	2	2	3	30	-23
CCNc1ccc(S(=O)(=O)C(F)(F)F)cc1NC(=O)C12CCC(CC1)C2	i	-3	-3	1	1	-4	1	/
CC(C)COc1ccc(C(=S)N2CCCC2)cc1	i	/	/	/	/	7	/	24
CNC(=O)CSc1nnc(-c2ccco2)n1-c1cccc(C)c1C	/	-11	-8	4	0	-11	1	11
Cc1ccccc1OC(C)c1nc(-c2ccccc2)no1 (configuration not stated)	/	6	7	3	5	-11	2	/
CC1CCc2c(sc3ncn(N)c(=N)c23)C1 (configuration not stated)	i	-21	0	1	6	5	-2	5
O=C1NC2(CCCCCC2)C(=O)N1Cc1ccccc1Br	i	-5	-10	-1	-2	-11	-8	4
CSc1nc(-c2ccccc2)c(-c2ccccc2)[nH]1	i	-2	-2	1	-1	8	2	-126
CCOC(=O)c1cc(-c2ccccc2)sc1NC(=O)c1ccc(OC)cc1	i	/	-4	/	/	-13	3	/
Cc1ccc2cccc(Oc3cnccn3)c2n1	i	-24	-4	2	6	/	-8	15
Cc1ccc(NC(=O)CNc2cc(S(=O)(=O)N3CCOCC3)ccc2NCC2CCCO2)cc1F (configuration not stated)	i	-11	-12	5	-1	3	2	-2
O=C(/C=C/c1ccccc1)N/C(=C/c1ccccc1)C(=O)Nc1ccc(C(=O)O)cc1	i	2	5	1	2	/	25	-5
CCOc1cc(N2CCOCC2)c(OCC)cc1NC(=O)CCS(=O)(=O)c1ccc(Cl)cc1	i	/	2	5	5	-17	1	-103
COc1ccc(/C=N/N2C(C)CCCC2C)cc1O (configuration not stated)	i	-16	-12	-2	4	-18	-11	5
C/C=C\C=C/C(=O)Nc1cccc(C2=NOC3(C2)C[C@@H](C(N)=O)N(C(=O)c2ccc(Cl)cc2)C3)c1 (some centres not stated)	i	2	-5	0	2	-22	4	0
Cc1ccc(S(=O)(=O)N2CCCCC2)cc1NC(=O)CCNC(=O)c1ccccc1	/	-5	/	5	-5	-6	/	/
O=C1NCCCC1C(=O)N/N=C/c1cc([N+](=O)[O-])ccc1O (configuration not stated)	i	8	0	1	0	21	-2	9
O=C(CCCc1cccs1)Nc1nccs1	i	/	4	/	/	-2	11	2
C=CCOC(=O)N1CCN(c2cccc(C(F)(F)F)c2)CC1	i	-9	9	2	0	/	6	8
O=C(O)COCC(=O)Nc1ccc2c(c1)CCC2	i	-7	-6	0	-5	-16	7	-134
Cc1ccc(NC(=O)c2c(C)noc2C)cc1S(=O)(=O)N1CCOCC1	/	7	/	1	6	4	/	-23
O=S(=O)(c1ccccc1F)N1CCCc2ccccc21	i	-3	-4	1	-1	-9	-7	-6
O=C(Cn1c(=S)[nH]c2ccccc2c1=O)N1CCN(c2ccccc2)CC1	i	-21	-2	3	3	-7	2	-1
Cc1ccc(C)c(NC(=O)CN(C)C(=O)c2ccccc2OCc2c(C)noc2C)c1	/	-18	/	5	2	-10	/	/
CC(C)NC(=O)/C(=N\O)c1ccccc1	i	-21	-6	-1	0	-13	5	-71
CC1CCCN(C2(O)C(=O)Nc3c(C(F)(F)F)cccc32)C1 (configuration not stated)	i	/	0	-1	2	-4	-6	6
COCCn1c(SCC(=O)Nc2cccc(S(N)(=O)=O)c2)nc2ccccc21	i	-13	12	-1	1	-9	-5	/
O=C(/C=C/[C@H]1O[C@@H](n2ccc(=O)[nH]c2=O)[C@H](O)[C@@H]1O)NCc1cccs1	/	-14	/	0	2	/	/	-11
CCCCN1CCc2c([nH]c3ccccc23)C1=O	i	-7	-2	-2	-1	-7	12	/
Cc1ccc(S(=O)(=O)N2C[C@H]3[C@H]4C(=O)N(c5ccccc5)C(=O)[C@H]4CC(=O)[C@H]3[C@@H]2c2ccccc2F)cc1	/	3	/	3	5	/	/	1
O=C(CN1C(=O)/C(=C/c2ccc(F)cc2)SC1=S)NC1CCS(=O)(=O)C1 (configuration not stated)	i	-19	8	5	7	-9	-1	-1
COc1ccc(N=C2NC(=O)C(CO)(CO)S2)cc1	i	-5	-20	-2	2	-1	0	-6

Compound profiles, as listed above. Order of values: Rce1 inh	Yeast UUG start	eIF4H inh	MT1-MMP act inh	MT1-MMP act inh RFP	CSC inhib	PABP FP inh	HIV Env fusion
`CC1CCCN(C2(O)C(=O)Nc3c(C(F)(F)F)cccc32)C1` (configuration not stated) is listed as i	/	0	-1	2	-4	-6	6
`CCOC(=O)c1cc(-c2ccccc2)sc1NC(=O)c1ccc(OC)cc1` is listed as i	/	-4	/	/	-13	3	/
`Cc1ccc(S(=O)(=O)N2CCCCC2)cc1NC(=O)CCNC(=O)c1ccccc1` is listed as /	-5	/	5	-5	-6	/	/

The listing continues:
SMILES	Rce1 inh	Yeast UUG start	eIF4H inh	MT1-MMP act inh	MT1-MMP act inh RFP	CSC inhib	PABP FP inh	HIV Env fusion
Cn1c(-c2ccc(F)cc2)cnc1NCc1ccccc1	i	-21	3	2	5	17	8	-22
COc1cc(C2C(C#N)=C(N)OC3=C2C(=O)CCC3)c([N+](=O)[O-])cc1OC (configuration not stated)	i	/	?	-80	-4	-6	?	-8
Cn1c(SCC(=O)N2CCCCCC2)nnc1-c1ccco1	i	0	12	2	-1	-11	7	-9
CCn1c(=O)cc(SCC(=O)N2CCN(c3ccccc3F)CC2)c2ccccc21	i	4	-3	5	4	24	-11	1
C=C(C)C1CC=C(CN2CCC(C(=O)OCC)CC2)CC1 (configuration not stated)	i	-14	0	/	/	1	25	41
COc1ccccc1-c1nnc(SC/C(O)=C(\C#N)c2nc3ccccc3[nH]2)n1C1CCCCC1	i	/	14	5	-2	12	-4	4
COc1ccc(-c2csc(NC(=O)c3cc(=O)c4ccccc4o3)n2)cc1OC	i	-17	-8	0	-5	-11	6	5
CN(C)C(=O)CSc1cccc2cccnc12	i	-25	11	5	2	51	-2	/
O=C(c1ccc(F)cc1F)N1CCN(c2ccccn2)CC1	i	-34	16	1	4	0	49	-63
CCC(CC)C(=O)N=C1SC2CS(=O)(=O)CC2N1CCc1ccc(OC)c(OC)c1 (configuration not stated)	i	/	2	0	1	-10	-4	22
Cc1nn(-c2ccccc2)c(Cl)c1/C=C1\SC(=S)NC1=O	i	/	-1	-9	9	/	21	/
Cc1cccc(S(=O)(=O)C(C#N)c2nc3ccccc3nc2N2CCOCC2)c1 (configuration not stated)	i	-7	?	-3	-2	/	?	/
Cc1cccc(NC(=O)c2cccc(NC3=NC4CS(=O)(=O)CC4S3)c2)c1 (configuration not stated)	i	-20	-8	-2	3	-16	-19	1
CN(C)C(=O)CSC1c2ccccc2C(=O)N1c1ccccc1 (configuration not stated)	i	-1	-4	2	3	-5	-11	/
C[C@@H](CSc1ccc(Br)cc1)CN1CC[C@H](C(C)(C)C)CCC1=O	/	4	/	-1	-9	123*	/	27
C=CCn1c(SC(C)C(=O)NC2CC2)nnc1-c1ccoc1C (configuration not stated)	i	-15	/	1	1	-4	/	/
CCOC(=O)C1(CCc2ccccc2)CCN(C(=O)CN2CCOC2=O)CC1	i	6	-4	-7	0	1	5	-8
O=C(O)CC(c1ccccc1)c1ccc2c(c1)OCO2 (configuration not stated)	/	-14	/	1	3	/	/	14
CC(C)COC(=O)C(C)Nc1n[nH]c(=S)[nH]c1=O (configuration not stated)	i	/	-5	2	0	-23	0	-22
CCc1nnc(NC(=O)CSc2nnc(CNc3ccc(Cl)cc3)o2)s1	i	-27	-2	3	2	24	-4	/
COc1cc(C2c3c(oc4ccccc4c3=O)C(=O)N2CCN2CCOCC2)cc(OC)c1OC (configuration not stated)	i	9	-11	1	-1	-10	4	/
O=C(O)c1ccc(N2C(=O)CC(SC(=NCc3ccc4c(c3)OCO4)Nc3ccccc3)C2=O)cc1 (configuration not stated)	i	-2	-3	5	-8	-7	-10	-3
COC(=O)N/N=C\c1c(C)[nH]n(-c2ccccc2)c1=O	i	/	4	4	8	-6	-9	3
O=C(Nc1cccc(Cl)c1)Nc1ccc(Br)cc1F	i	-14	-2	-21	-28	/	6	14
CCCN1CCN(C(=O)c2cc3c(s2)-c2ccccc2OC3)CC1	i	-23	0	0	2	/	-11	-16
CC(C1SC(=S)NC1=O)C1SC(=S)NC1=O (configuration not stated)	/	-24	/	-65	7	/	/	-3
COc1cc(CNC(=O)c2cc(-c3cc(OC)ccc3Cl)n[nH]2)cc(OC)c1	/	-24	/	3	0	/	/	6
Cc1ccnc(NS(=O)(=O)c2ccc(NC(=O)C3CCCCC3)cc2)n1	i	-9	0	3	0	/	-10	/
CC(=O)c1ccc(-c2cnc3c(NC=O)cc(-c4ccc(C(=O)NC5CC5)cc4)cn23)cc1	/	-4	/	-18	-7	/	/	37
CCOCCCN(C(=O)c1snc(C(N)=O)c1N)C(C(=O)NCCC(C)C)c1ccc(F)cc1 (configuration not stated)	i	-1	-5	4	-2	-9	-2	10
O=C(Nc1cccc(OC(F)(F)F)c1)C1Cc2c(-c3cccc(F)c3)ccnc2O1 (configuration not stated)	/	-27	/	3	-5	/	/	8
CCN(CC)CCNC(=O)c1cc2c(=O)n(CC)c3ccccc3c2s1	i	0	-1	13	6	-12	21	-14
Cc1ccc(NC(=O)Cn2nc(C(=O)O)c3ccccc3c2=O)cc1S(=O)(=O)N1CCOCC1	/	-1	/	3	2	/	/	-5
CCn1c(=N)n(CC(O)COc2ccc(C)cc2)c2ccccc21 (configuration not stated)	i	/	-9	1	0	3	-2	10

Quoted at random: 2 entries already listed, in no set order.
SMILES	Rce1 inh	Yeast UUG start	eIF4H inh	MT1-MMP act inh	MT1-MMP act inh RFP	CSC inhib	PABP FP inh	HIV Env fusion
Cc1nn(-c2ccccc2)c(Cl)c1/C=C1\SC(=S)NC1=O	i	/	-1	-9	9	/	21	/
O=C(CCCc1cccs1)Nc1nccs1	i	/	4	/	/	-2	11	2
